# VACV mCherry inh: vaccinia inhibition (mCherry reporter); Vaccinia virus mCherry reporter infection, fluorescence; about a quarter of the inactives have no number; Potency, µM (doses to about 36.5 µM), for inactives: at the top dose activity change, negative = inhibition, actives largely listed as inhibitors; 0.63% of 310,000 active; AID 720579; active = well fitted inhibition curve with a large enough effect; inconclusive = small, poorly fitted or top-dose-only effect; inactive = no such curve, though single readings can be large or run the other way; tested in A549 cells; note: nearly all actives have a fitted effect of over 35% in size; inactives centre near -10
# Vaccinia Venus: inhibitors of vaccinia virus (Venus reporter); Vaccinia virus Venus reporter expression, fluorescence; Potency, µM (titrated, usually from 36.5 µM), without a hit: top-dose activity change, negative = inhibition, hits mostly inhibitors; 0.46% of 330,000 active; active means well fitted inhibition curve with a large enough effect; inconclusive means small, poorly fitted or top-dose-only effect; inactive means no such curve, though single readings can be large or run the other way; tested in A549 cells; note: nearly all actives have a fitted effect of over 30% in size; inactives centre near -10
# The depositor's hits bear a star; i = inactive; ? = inconclusive; / = no result given; & = joins results of further samples; [ ] = dose if it differs, or a comment. % is set by controls: 0 for no effect and ±100 for the full control effect; potency is the fitted concentration of half-maximal effect.
SMILES,VACV mCherry inh,Vaccinia Venus
Cc1ccccc1Cn1cc(S(=O)(=O)c2ccc(C(C)C)cc2)c(=O)c2cc3c(cc21)OCO3,-15.2%,-11.2%
CCOc1ccc(S(=O)(=O)N2CCN(Cc3ccco3)CC2)cc1,-17.8%,-8.7%
Cc1ccccc1OCC(=O)NCc1ccccc1,i,0.8%
NS(=O)(=O)c1ccc(NC(=O)CSc2ncn[nH]2)cc1,i,-3.4%
C[C@H]1COC(=O)[C@H](Cc2ccc(F)cc2)C/C=C\C[C@@H](CC(=O)N(CCO)Cc2ccccc2)C(=O)N1,i,-20.6%
Cc1ccc(N2C(=O)N(CC(=O)Nc3c(C)cc(C)cc3Cl)C(=O)C2C)cc1 (centres undefined),-28.9%,-5.5%
CC1C(=O)N(Cc2cn(CCC3OCCCO3)nn2)CCS(=O)(=O)N1Cc1ccc(-c2ccc(Cl)c(Cl)c2)cc1 (centres undefined),-29.3%,?
c1ccc2c(c1)CC1CNCc3cccc(c31)S2 (centres undefined),i,-15.5%
CC(C)=CCc1c(O)cc(C)oc1=O,i,-10.2%
O=C(/C=C/c1ccoc1)c1ccccc1O,0.6%,-3.5%
COc1ccc(CSc2n[nH]c(C)n2)cc1Br,i,-2.7%
CCOc1ccc(/C(O)=C2\C(=O)C(=O)N(c3ccc(OC)cc3)C2c2ccccc2[N+](=O)[O-])cc1 (centres undefined),-53.1%,6.6%
COc1ccc(N2C(=O)CC(N3CCC(O)(c4cccc(C(F)(F)F)c4)CC3)C2=O)cc1 (centres undefined),-5.0%,-1.9%
Cc1ccccc1OCCSc1nc2ncnc(N)c2[nH]1,-11.9%,-11.4%
CC(=O)c1c(N2CCN(C(=O)c3ccco3)CC2)nc(=S)n(-c2ccccc2)c1C,i,-15.9%
CC1(c2nnc(-c3ccc(Cl)cc3)o2)CC(c2ccc(Cl)cc2)=NO1 (centres undefined),0.8%,-10.0%
CNC(=O)COC(=O)[C@@H](Nc1ccc(S(=O)(=O)N2CCOCC2)cc1[N+](=O)[O-])C(C)C,-15.0%,-5.5%
O=C(Cn1cc(COc2ccc3ccc(=O)oc3c2)nn1)c1ccc(O)cc1,5.3%,-2.9%
CCn1c(C)nc2cc(C(=O)NN=Cc3ccccc3OC(F)F)ccc21,-5.0%,-7.0%
Cc1ccc(C2CC(=O)NC3=C2C(=O)CCC3)cc1Br (centres undefined),/,-28.7%
CN1CCN(NC(=O)c2cc(S(=O)(=O)Nc3ccc(Cl)cc3)ccc2Cl)CC1,-8.1%,-4.9%
O=C(COC(=O)c1cc(Br)ccc1O)Nc1cccnc1Cl,i,-8.0%
CC1(C)CC(=O)C2=C(C1)N(Cc1ccccc1)C(=O)C2(O)C(F)(F)F (centres undefined),-13.2%,-8.7%
O=C(c1cc(-c2ccccc2)on1)N1CCN(C(=O)c2ccco2)CC1,-9.0%,0.0%
CCc1ccc(C=C2SC(=S)N(CCCC(=O)Nc3ccc(C(=O)O)cc3)C2=O)cc1,6.5%,-2.7%
O=C(c1ccccc1)c1ccsc1C(=O)c1ccccc1,-11.0%,-19.6%
CCOc1cccc(NC(=O)C2CC(=O)N(C)C(=Nc3ccccc3)S2)c1 (centres undefined),-10.8%,-22.4%
Cc1ccc(S(=O)(=O)N2C[C@]3(O)C[C@@H]4C(=O)N(c5ccccc5)C(=O)[C@@H]4C[C@]3(OC(=O)Nc3c(C)noc3C)C2)cc1,i,-10.7%
Cc1ccc(NC(=O)CSc2nc(-c3ccccc3Cl)nc3cc(=O)[nH]n23)c(C)c1,-7.6%,-15.6%
CCOc1ccc(-n2nc(CO)c(C(=O)NCc3cccc(OC)c3)n2)cc1,-1.9%,-8.7%
NC(N)=Nc1nc2ccc(Cl)cc2c(=O)[nH]1,-3.5%,-16.0%
Cc1ccc(S(=O)(=O)N2CCCC2)s1,-14.3%,-7.5%
N#CCSc1nn(-c2ccc(F)cc2)c(=S)s1,?,?
COC1(c2ccccc2)NC(=S)NN=C1c1ccccc1 (centres undefined),/,-0.8%
CCOC(=O)CSC1=C(C#N)C(c2ccc(C)cc2)C(C(=O)OC)C(=O)N1 (centres undefined),-13.5%,-10.0%
Cc1cccc(C)c1NC(=O)C1CCCN1C(=O)NCc1ccccc1 (centres undefined),5.3%,-4.2%
CCOc1ccccc1Nc1sc(C(=O)c2ccccc2)c(N)c1C(=O)Nc1ccc(F)cc1,-11.9%,-5.9%
COc1ccc(Cn2nnc3c(=O)[nH]c(C4CCN(C(=O)c5ccccc5Cl)CC4)nc32)cc1,/,-1.4%
COc1ccc(CCNC(=O)c2ccc(=O)[nH]c2)cc1,-3.3%,-2.1%
O=C(N/N=C/c1ccc(N2CCCCC2)o1)c1ccccc1,-14.4%,-15.9%
CC(=O)N1CCN(Cc2cc(=O)n3cc(Cl)c(C)c(Cl)c3n2)CC1,-9.4%,-9.5%
CCCCCn1c(CN2CCN(C(=O)OCC)CC2)nc2c1c(=O)[nH]c(=O)n2C,-20.6%,-10.8%
CC(=O)Nc1ccc(NC(=O)CSc2nc3c(=O)n(C)c(=O)n(C)c3n2C)cc1,i,-8.8%
Cc1ccn2c(=O)nc(SCC(=O)NC3CCCC3)nc2c1,-13.8%,-8.1%
NC(=O)C1CCCN(C(=O)c2ccc(Cl)c(S(=O)(=O)N3CCc4ccccc43)c2)C1 (centres undefined),i,-25.8%
COc1cccc(S(=O)(=O)Nc2cccc(C(=O)N3CCOCC3)c2)c1,-11.0%,-2.9%
CCOc1ccccc1N1C(=O)c2ccc(C(=O)O)cc2C1=O,/,-6.5%
COc1ccc(C(=O)Nc2ccc(C(=O)NCCc3ccc(OC)c(OC)c3)cc2)cc1,3.0%,-11.1%
O=C(Nc1ccc(Oc2ccccc2)cc1)c1csc(COCCO)n1,i,-11.5%
Cc1c(Cl)cccc1NC(=O)CN(CCc1ccccc1)S(=O)(=O)c1ccccc1,-24.9%,-12.2%
O=C(CNC(=S)NC(=O)c1ccccc1)c1ccccc1,-16.7%,-21.9%
O=c1[nH]c(O)c(/C=C2\C=Nc3ccc(OCc4ccccc4)cc32)c(=O)[nH]1,-2.0%,-9.0%
O=C(NCc1ccccc1Cl)c1csc(COCCO)n1,i,-2.6%
c1ccc(C2(CNc3ccccn3)CCCC2)cc1,-11.5%,-7.7%
Cc1cc(=O)c2cc(C(=O)c3ccccc3)ccc2[nH]1,i,-17.0%
O=S(=O)(Cc1ccco1)Cc1nc(-c2ccc(Cl)cc2)cs1,i,-10.9%
COc1ccc(C2C(C#N)=C(N)OC3=C2C(=O)CCC3)cc1OC (centres undefined),?,-16.2%
Cc1ccc(CN(C(=O)COc2cccc(Cl)c2)c2ccccn2)o1,-9.4%,-6.1%
Cc1nc2cc(-c3ccccc3)nn2c(C)c1CCC(=O)Nc1ccc(F)cc1F,-13.5%,-11.8%
COc1ccc(CCNC(=O)[C@@H]2C[C@H]2c2ccccc2)cc1OC,-13.3%,-6.2%
# (cont.)
SMILES,VACV mCherry inh,Vaccinia Venus
Cc1cc(C)c2c(N)c(S(=O)(=O)c3ccccc3)sc2n1,?,?
Cc1ccc(C)c(CN2C(=O)CSc3ccc(C(=O)NCCc4ccc(Cl)cc4)cc32)c1,-18.2%,-18.7%
CN(CC(=O)Nc1ccc(F)c(F)c1F)C(=O)c1ccc(N2CCCC2=O)cc1,i,0.0%
COc1ccc(C(=O)C[n+]2cc(Br)cc(Br)c2)cc1,-2.1%,-18.6%
COc1ccc(-c2nnc(SC(C)C(=O)Nc3ccc4c(c3)OCCO4)o2)cc1 (centres undefined),-10.9%,0.9%
Cc1ccc(S(=O)(=O)N2[C@@H](c3ccc4c(c3)OCO4)C(C(=O)O)=C[C@H]2C(C)(C)C)cc1,i,-16.2%
CCc1cccc(CC)c1N(COC)C(=O)Cn1cnc2ccccc21,-8.6%,-5.5%
COc1ccc(C(C(=O)NC2CCCCC2)N(C(=O)c2ccco2)c2ccccc2C(C)=O)cc1 (centres undefined),3.6%,-11.5%
O=C(c1cccs1)N1CCCc2cc(NS(=O)(=O)c3cc(F)ccc3F)ccc21,-13.1%,-18.2%
CC(CNC(=O)CCC(=O)N1CCOc2ccccc21)c1ccccc1 (centres undefined),-17.4%,-12.5%
COC(=O)c1cc2c(C(F)(F)F)nn(C)c2s1,i,-18.1%
Cc1csc2c(C#N)c(=O)c3c(n12)CCC3,7.9%,4.7%

# An excerpt from above in order of count of non-hydrogen atoms, falling.
SMILES,VACV mCherry inh,Vaccinia Venus
COc1cccc(S(=O)(=O)Nc2cccc(C(=O)N3CCOCC3)c2)c1,-11.0%,-2.9%
Cc1ccc(CN(C(=O)COc2cccc(Cl)c2)c2ccccn2)o1,-9.4%,-6.1%
Cc1cc(=O)c2cc(C(=O)c3ccccc3)ccc2[nH]1,i,-17.0%
COc1ccc(CSc2n[nH]c(C)n2)cc1Br,i,-2.7%

# (listing goes on)
SMILES,VACV mCherry inh,Vaccinia Venus
CNC(=O)C1=C(C)NC(=S)NC1c1cccs1 (centres undefined),-12.0%,-2.8%
COc1ccc(-c2cc(C(=O)N3CCCC3)no2)cc1,46.4%[activator],3.9%
Cc1ccc(C)c(Cn2c3ccccc3c3cnn(CC(=O)NCc4ccccc4)c(=O)c32)c1,i,-1.8%
NC(=O)C1CCN(C(=O)CN(C2CCCCC2)S(=O)(=O)c2ccc(F)cc2)CC1,i,-3.1%
COc1cc([N+](=O)[O-])ccc1NC(=S)Nc1cccc(C(=O)O)c1,i,-2.6%
Cc1cc([N+](=O)[O-])ccc1N=Nc1c(N)[nH]n(-c2ccccc2)c1=O,-3.7%,2.5%
Cc1cccc(C(CC(=O)NCC2(c3ccccc3)CCCC2)c2ccccc2)c1O (centres undefined),-14.8%,-13.9%
O=S(=O)(NCc1csc(-c2cccnc2)n1)c1cccs1,-5.8%,-9.2%
COCCNC(=O)CCC(=O)NNc1nc2ccccc2c2nc(C)nn12,-26.9%&-5.5%,-13.4%&1.9%
COc1ccccc1NC(=O)C(C)OC(=O)C1CC(=O)N(c2ccc3c(c2)OCCO3)C1 (centres undefined),i,0.5%
COc1ccc(C(=O)C2CCN(C(=S)Nc3ccc(F)cc3)CC2)cc1,-9.8%,-0.8%
O=C(Cn1ncc2ccsc2c1=O)N1CCN(c2ccccc2F)CC1,-4.3%,1.1%

# Individual results from the results shown.
# COc1ccc(C(=O)C[n+]2cc(Br)cc(Br)c2)cc1 – VACV mCherry inh = -2.1%
# NC(=O)C1CCN(C(=O)CN(C2CCCCC2)S(=O)(=O)c2ccc(F)cc2)CC1 – Vaccinia Venus = -3.1%
# COc1ccc(C(=O)Nc2ccc(C(=O)NCCc3ccc(OC)c(OC)c3)cc2)cc1 – Vaccinia Venus = -11.1%

# New compounds follow
SMILES,VACV mCherry inh,Vaccinia Venus
COC(=O)CCCC1=CC2=CC(=O)C(C)(OC(=O)c3cccs3)C(=O)C2=CN1CCc1ccccn1 (centres undefined),-8.5%,0.3%
COc1ccc(/C=C2\CCCC(C(=O)C(F)(F)F)=C2O)cc1,-17.0%,-2.1%
Cn1c(SCc2ccc(C(C)(C)C)cc2)nnc1C1COc2ccccc2O1 (centres undefined),-1.0%,-7.1%
O=C(NNc1nc(-c2ccccc2)cs1)c1ccc(F)cc1,i,-3.8%
Cn1c(N)c(S(=O)(=O)N2CCCC2)c(=O)n(C)c1=O,-0.9%,-4.7%
Cc1sc2ncnc(N3CCCCC3C)c2c1C (centres undefined),-21.0%,-25.2%
COc1ccc(C(=O)Nc2ccc(C(=O)OCc3cc(=O)n4nc(C(C)C)sc4n3)cc2)cc1,-15.6%,-12.1%
CSc1ncccc1C(=O)NC1CC(C)(C)Cc2c1cnn2-c1ccccc1C (centres undefined),-7.6%,2.2%
CCN(CC)C(=O)C1=C(C)N(Cc2ccccc2)C(=O)C(CC(=O)NCC2CCCCC2)C1 (centres undefined),-7.0%,?
Cn1cnnc1SCC(=O)Nc1ccc(C#N)cc1,-4.8%,0.3%
CCn1nnc2cc(C(=O)Nc3cc(OC)cc(OC)c3)ccc21,i,-10.7%
CCCCNC(=O)C1CCN(Cc2nc(-c3ccc(OC)c(OC)c3)oc2C)CC1,-13.6%,-7.1%
N#Cc1c(N)[nH]c(C(=O)c2ccccc2)c1-c1ccccc1Br,2.4%,-3.3%
Clc1ccc2c(c1)NC(c1ccncc1)=NC(c1cccs1)=N2,-9.2%,-15.5%
Cc1cc(C)nc(NS(=O)(=O)c2ccc(NC(=O)CCC3COc4ccccc4O3)cc2)n1 (centres undefined),/,-27.0%
CCOC(=O)c1ccc(N2C(=O)CC(SCC(N)C(=O)OCC)C2=O)cc1 (centres undefined),-9.8%,0.4%
NC(c1csc(Nc2nncc3ccccc23)n1)c1ccccc1Cl (centres undefined),-23.5%,-20.1%
COc1ccc2[nH]cc(C(=O)CNc3nc(C)cs3)c2c1,-1.9%,-8.4%
O=C(NCC1CC1)c1onc(CSc2nc3ccccc3[nH]2)c1C(=O)NCC1CC1,i,-13.5%
CCN(CC)CC(=O)NCc1cc(-c2ccc(OC)cc2)no1,/,-22.9%
CC(C)c1ccc(NC(=O)Nc2nc(C(N)c3ccccc3Cl)cs2)cc1 (centres undefined),-1.4%,-24.2%
CCOC(=O)c1[nH]cnc1C(=O)N[C@@H](C)c1ccccc1,i,-10.3%
CCOC(=O)[C@]12Cc3cc(OC)ccc3[C@H]1N(C1CCCCC1)C(=O)c1ccccc12,?,?
CC(C)c1ccc(NC(=O)CSC(C)c2nc3ccccc3c(=O)[nH]2)cc1 (centres undefined),-0.4%,2.4%
COc1ccc(C(=O)NCCS(=O)(=O)N2CCN(C(=O)c3ccco3)CC2)cc1,-2.2%,-2.3%
O=C(NCc1ccc2c(c1)OCO2)Nc1ccc([N+](=O)[O-])cc1,-5.9%,-11.3%
Cc1ccc(NC(=O)CSc2nnc(-c3ccccc3Br)o2)cc1C,/,?
O=C(NC1CC1)C1=C[C@H](C2CCCCC2)C[C@H](OCc2ccc(CO)cc2)O1,-21.3%,?

# Compound activity as filed in PubChem.
